# Choline anaer gr: choline-fed anaerobic bacterial growth inhibition | AID 1963822 | 55,000 tested, 0.2% active | Gram-negative bacterium anaerobic choline minimal medium, absorbance growth; active compounds read low; many inactives read as strong as hits in the columns shown | calls only;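 active = growth z-score on choline under -2 at 7 or 20 h with little or no fall on glycerol, limits in tiers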;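 also: stock transfer was 300 nL into about 50 µL; the organism is E. coli; final concentration not given here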
# Choline anaer gr early: second read-out of Choline anaer gr, no call of its own (marks repeat the call); z-score; measured here: choline growth z-score, timepoint 1;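 score of optical density at 7 h as mean of two plates; lower means less growth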
# Numbers without * were called inactive; i = inactive; & = joins results of further samples. These rows are one share of the data, so the mix of outcomes need not match the whole.
SMILES,Choline anaer gr,Choline anaer gr early
CCc1nc(-c2cc(S(=O)(=O)NCC(=O)N3CCOCC3)c(C)s2)no1,i,-1.8
O=C(Cn1c(COc2ccccc2)nc2ccccc21)Nc1ccc(F)cc1,i,0.38
O=C(Nc1cccc(-c2nc(-c3ccccc3)no2)c1)C1CC(=O)N(Cc2ccccc2)C1 (stereo unspecified),i,0.26
Cc1noc2c1C(c1cccc(Br)c1)C1=C(CC(C)(C)CC1=O)N2 (stereo unspecified),i,0.04
COc1ccccc1NC(=O)Cn1c(=O)n(Cc2ccc3c(c2)OCO3)c(=O)c2oc3ccccc3c21,i,1.4
c1ccc(-n2nnnc2Oc2ccc(CNCCc3c[nH]c4ccccc34)cc2)cc1,i,-1.3
CCOc1ccc(N2C(=O)C3N=NN(Cc4cccc(F)c4)C3C2=O)cc1 (stereo unspecified),i,0.91
C=Cc1ccc(Cn2c(=O)c3cnc(-c4ccc(OC)cc4)nc3n(C)c2=O)cc1,i,-0.49
Cc1ccc(-c2c(C(F)(F)F)nn3c(NCC(C)C)cc(C)nc23)cc1,i,0.79
Cc1nn(-c2ccccc2)c2c1-c1sc(C(=O)NC3CCN(Cc4ccccc4)CC3)cc1CC2,i,-0.21
CCc1ccc(-c2[nH]ncc2CN2CCCC2c2c(C)noc2C)cc1 (stereo unspecified),i,-0.32
O=C(Nc1cccnc1)c1ccc(-c2nc(-c3ccccc3)no2)cc1,i,0.22
CCNC(=O)N1CCCC(c2cccc(C(=O)NCCCN3CCCC3=O)c2)C1 (stereo unspecified),i,-0.54
CCn1c(Cn2cccn2)nc2cc(NC(=O)c3ccccc3C)ccc21,i,0.45
CC1=C(CC(=O)O)c2cc(F)ccc2/C1=C\c1ccc(S(C)(=O)=O)cc1,i,0.82
Cc1nc2ncccc2c(=O)n1-c1cccc(NC(=O)c2ccccc2Cl)c1,i,-0.1
CCSc1nn(CC(=O)Nc2ccc(F)cc2)c(N)c1S(=O)(=O)c1ccccc1,i,-0.33
Cc1ccccc1CNC(=O)COc1ccc(-c2cnc3ccccc3n2)cc1,i,0.21
CCCn1c(=O)c2ccc(C(=O)NC(C)C)cc2n2c(=O)n(CC(=O)c3cccc(Cl)c3)nc12,i,0.47
O=C(CCCc1nnc2c(=O)n(-c3ccc(Cl)cc3)ccn12)N1CCC(N2CCCCC2)CC1,i,0.52
N#CC1=CN(c2cc(F)cc(F)c2)c2cc(F)ccc2S1(=O)=O,i,-0.32
COc1ccc2c(c1)CCc1c(C(=O)Nc3cc(Br)ccc3O)noc1-2,i,0.14
CCS(=O)(=O)CCn1c([N+](=O)[O-])cnc1C,i,0.28&0.77&0.25
CC(C(=O)N1CCCN(Cc2noc(-c3ccccc3)n2)CC1)c1ccccc1 (stereo unspecified),i,0.04
Cn1c(=O)c2nc(S(=O)(=O)CCC(=O)Nc3ccc(Cl)cc3F)n(C)c2n(C)c1=O,i,-0.09
# (list continues)
SMILES,Choline anaer gr,Choline anaer gr early
CCC(C)N1C(=O)c2c(-n3cccc3)c3cc(C)ccc3n2CC1(C)C(=O)NC1CCCC1 (stereo unspecified),i,1.1
CCOc1ccc(-n2c(C)c(C)c3c2ncn2ncnc32)cc1,i,-0.31
Cc1sc(C)c(S(=O)(=O)N2CCc3ccccc3C2)c1-c1cc(C(F)(F)F)on1,i,-0.67
Cc1ncc(CO)c2cc(-c3nc(-c4ccc(F)cc4)no3)c(=O)oc12,i,0.83
Cc1cc(C)cc(C(=O)N[C@H](C)C(=O)NCc2cscn2)c1,i,-0.69
COc1ccc(-c2nn3c(CSc4ccccc4)nnc3s2)cc1OC,i,1.2
O=C(Nc1nc2c(s1)CN(S(=O)(=O)c1ccccc1)CC2)Nc1ccccc1Cl,i,-0.23
CS(=O)(=O)N1CCCN(C(=O)NC2CCCC2)CC1,i,0.26
COc1ccc2nc(-n3nc(C)c4c3NC(=O)CC4c3cc(Br)ccc3OC)sc2c1 (stereo unspecified),i,0.15
CCN(Cc1ccccc1)c1ccc(C(=O)O)cc1NS(=O)(=O)c1ccccc1Cl,i,-2.1
Cc1cccc(C(=O)NCCc2nc(-c3ccccc3)n[nH]2)c1,i,-0.67
Cc1ccc(S(=O)(=O)c2ccc(C(=O)N3CCN(Cc4ccc5c(c4)OCO5)CC3)cn2)cc1,i,-0.19
CN1CCc2c(sc3c2CN(C(=O)Nc2cccc(Cl)c2)C(c2ccccc2)c2cccn2-3)C1 (stereo unspecified),i,0.52
O=C(NC1CCCCC1)N1CCC(c2nc(-c3ccc(Cl)cc3)no2)CC1,i,0.25
CCn1ccc2cc(S(=O)(=O)N3CCCN(C(=O)Nc4cccc(C)c4C)CC3)ccc21,i,-0.17
CCC(=O)NC(C)c1nc(-c2ccccc2OC)no1 (stereo unspecified),i,0.23
O=C(c1ccco1)N1CCN(C(=O)c2cc3c(s2)CN(C2CC2)C3)CC1,i,-0.98
CC1CCN(S(=O)(=O)c2ccc3c(ccc(=O)n3CC(=O)N3CCc4ccccc4C3)c2)CC1,i,1
Cc1nc2nc(-c3ccc(C(C)(C)C)cc3)nn2c(C)c1CC(=O)N1CCCCC1C (stereo unspecified),i,0.03
COc1ccc(Oc2cc3c(cc2NS(=O)(=O)c2ccccc2)n(C)c(=O)c(=O)n3C)cc1,i,0.54
Cc1nc2c(c(NCCCN(C)C)n1)CCC2,i,0.58
Cc1cccc(-c2nnc(-c3nc(N4CCc5ccccc54)c4ccccc4n3)o2)c1,i,0.55
Cc1ccc(-c2ccc(OCCNC(=O)C3CC3)nn2)cc1,i,-1.2
CCn1cnc2cc(NCc3cccc(Br)c3)ccc21,i,-1.3
COc1ccc(NC(=O)c2cccc(-c3nccc(Oc4ccccc4OC)n3)c2)cc1,i,0.34
# (continued)
SMILES,Choline anaer gr,Choline anaer gr early
CCOC(=O)c1sc(NC(=O)c2snnc2C)nc1C,i,-2.6
CCCCC(=O)N1CCN(c2nc3ccccc3n(CC)c2=O)CC1,i,0.03
O=C(Cc1csc2nc(-c3ccccc3)cn12)NCCc1ccccc1,i,0
O=C(NCc1ccccc1Cl)C1CCN(c2nnc(-n3cccc3)s2)CC1,i,-1.4
Cc1ccc(C(=O)N2CCN(C(=O)c3cc4cc(Br)ccc4[nH]3)CC2)cc1C,i,0.6
CCCNC(=O)c1ccc(Cl)c(-n2c(C)nc3cccnc32)c1,i,-1.8
O=C(CCc1nc2sc3c(c2c(=O)[nH]1)CCCC3)Nc1ccc(F)cc1,i,-0.33
C=CCn1c(=O)c(C(=O)Nc2ccc(C)cc2)c(O)c2ccccc21,i,-0.33
Cc1cc(N2CCCC2)n2nc(CN3CCN(c4ccccn4)CC3)nc2n1,i,-1.6
CN1C(=O)Cc2cc(S(=O)(=O)N3CCN(c4ccc(=O)n(-c5ccc(F)cc5)n4)CC3)ccc21,i,-0.78
O=C(Nc1ccccc1F)c1cncc(NS(=O)(=O)c2ccc(F)cc2)c1,i,0.55
O=C1COc2ccc(C(=O)NCc3ccc4c(c3)OCO4)cc2N1,i,-0.14
CC(NC(=O)CCCN1CCSc2ccccc21)c1ccccc1 (stereo unspecified),i,0.66
COc1ccc(OC)c(S(=O)(=O)NCCc2sc(-c3ccc(F)cc3)nc2C)c1,i,-0.36
O=C(Nc1ccccc1)c1nc2ccccc2n2cnnc12,i,0.79
COc1ccc2c(c1)C=C(C(=O)NCCc1c[nH]c3ccc(OC)cc13)CO2,i,2.2
CCCc1noc(Cn2ccnc2CC)n1,i,0.32
NS(=O)(=O)c1ccc(NC(=O)c2ccc3c(c2)CC(c2ccccc2)OC3=O)cc1 (stereo unspecified),i,-0.85
Cc1ccc(N2C(=O)CN(Cc3ccccc3Cl)[C@H]3CS(=O)(=O)C[C@H]32)cc1C,i,1.5
CCOc1ccc(NC(=O)CSc2nnc(NC(=O)Nc3ccc(OC)cc3)s2)cc1,i,0.31
COc1ccc2c(c1)CCC1C2CC[C@@]2(C)C1CC[C@@H]2NCCCCCCN1C(=O)C=CC1=O (stereo partly specified),i,-0.06
O=C(NCCc1ccccc1Cl)c1cnn(-c2ccccc2)c1,i,-0.99
Cc1ccc(-c2csc3c(=O)n(C)c(SCC(=O)N4CCCC4)nc23)cc1,i,-1.7
Cc1c(Cl)cccc1NC(=O)CN1CCN(Cc2ccc(F)cc2Cl)S1(=O)=O,i,0.26
O=C(NC1CC1)c1nn(-c2ccccc2Cl)nc1CO,i,-0.02

# Part of the list above, with bars between the fields.
compound | Choline anaer gr | Choline anaer gr early
CS(=O)(=O)N1CCCN(C(=O)NC2CCCC2)CC1 | i | 0.26
COc1ccc2nc(-n3nc(C)c4c3NC(=O)CC4c3cc(Br)ccc3OC)sc2c1 (stereo unspecified) | i | 0.15
CCN(Cc1ccccc1)c1ccc(C(=O)O)cc1NS(=O)(=O)c1ccccc1Cl | i | -2.1
Cc1cccc(C(=O)NCCc2nc(-c3ccccc3)n[nH]2)c1 | i | -0.67

# Following part:
SMILES,Choline anaer gr,Choline anaer gr early
CC(C)CNC(=O)c1ccc2c(=O)n(CC(C)C)c3nn(CC(N)=O)c(=O)n3c2c1,i,0.35
COc1cccc(NC(=O)N2CCN(c3nc(C)cc(Nc4ccccc4)n3)CC2)c1,i,0.63
Fc1ccccc1-c1nc2ncccc2o1,i,-0.34
Nc1nonc1C(=O)N1CCCN(C(=O)Nc2ccccc2)CC1,i,-0.18
Cc1nnc(-c2c(C)[nH]c(C)c2S(=O)(=O)N2CCC(N3CCCCC3)CC2)o1,i,0.15
O=C1Nc2ccccc2SC1C(=O)N1CCC(C(=O)N2CCn3c2nc2ccccc23)CC1 (stereo unspecified),i,-0.48
Clc1ccccc1CNC1=NCCNC12CCOCC2,i,0.32
COc1cccc(-c2cc(C(F)(F)F)n3ncc(C(=O)N(C)CCc4ccccn4)c3n2)c1,i,-1.3
CC(C)Cn1c(=O)c2sccc2n2c(SCC(=O)N3CCCC(C)C3)nnc12 (stereo unspecified),i,-0.18
COc1ccc(OCc2nc(-c3ccc4c(c3)[nH]c(=O)c(=O)n4C)no2)cc1,i,0.01
COc1ccc(-c2nnc3c(C(=O)Nc4cccc(C)c4)cccn23)cc1,i,1.3
Cc1noc(C)c1S(=O)(=O)N1CCC(CC(=O)N2CCN(C(=O)C3CCC3)CC2)CC1,i,-0.6
C=CCNc1oc(-c2ccc(F)cc2)nc1S(=O)(=O)c1ccccc1,i,0.37
CCN(CC)S(=O)(=O)c1ccc2c(c1)nnn2C1CCN(C(=O)NC2CCCCC2)CC1,i,0.44
CCN(CC)S(=O)(=O)c1c(C)[nH]c(=O)[nH]c1=O,i,0.77
CCOCCCN1C(=O)c2cc3sccc3n2CC1(C)C(=O)NC1CCCC1 (stereo unspecified),i,-0.44
Cc1ccc(NC(=O)CN2C(=O)CCn3nc(-c4cccn4C)cc32)c(C)c1,i,0.69
O=C(NC1CCCC1)c1nc(-n2cnnc2)ccc1Br,i,-0.89
Cc1ccc2cnn(CCCC(=O)NCc3ccc(F)cc3)c2c1,i,-1
Nc1ncn(C2O[C@H](CO)[C@@H](O)[C@H]2O)c(=O)n1 (stereo partly specified),i,-2.7
c1cc(-c2nn3c(C4CCCCC4)nnc3s2)ccn1,i,0.17
CC(C)OCCCNC(=O)c1cc(-c2ccccn2)nc2ccccc12,i,0.12
CC(C)(C)C1CCc2c(sc3nc(CCC(=O)N4CCCCC4)[nH]c(=O)c23)C1 (stereo unspecified),i,1.3
Cc1csc2nc(CCNS(=O)(=O)c3ccc(F)cc3)cn12,i,-1.3
CN(C)c1nc2nonc2nc1Nc1ccc(F)cc1,i,-0.86

# Overlap with the part before: 6 compounds, followed by the next part.
SMILES,Choline anaer gr,Choline anaer gr early
Nc1ncn(C2O[C@H](CO)[C@@H](O)[C@H]2O)c(=O)n1 (stereo partly specified),i,-2.7
c1cc(-c2nn3c(C4CCCCC4)nnc3s2)ccn1,i,0.17
CC(C)OCCCNC(=O)c1cc(-c2ccccn2)nc2ccccc12,i,0.12
CC(C)(C)C1CCc2c(sc3nc(CCC(=O)N4CCCCC4)[nH]c(=O)c23)C1 (stereo unspecified),i,1.3
Cc1csc2nc(CCNS(=O)(=O)c3ccc(F)cc3)cn12,i,-1.3
CN(C)c1nc2nonc2nc1Nc1ccc(F)cc1,i,-0.86
NNCCc1ccccc1,i,0.23&-0.51&-3.5
O=C(NCCn1c(C(F)(F)F)nc2cccnc21)Nc1ccccc1Cl,i,-0.55
CCOc1cc(-c2noc(-c3ccccc3)n2)ccc1OCC(=O)Nc1nccs1,i,-0.88
Cc1cccc(OC(C)C(=O)N(Cc2ccccc2)C2CCS(=O)(=O)C2)c1C (stereo unspecified),i,-1.2
CCCN1CCN(C(=O)C2CCCN(S(=O)(=O)c3cn(C(C)C)cn3)C2)CC1 (stereo unspecified),i,0.08
Cc1cn2c(=O)cc(COc3ccc(Cl)cc3NC(=O)C(C)C)nc2s1,i,-0.06
CC(C)c1nc(CN(C)C(=O)NC(C(=O)NC(Cc2ccccc2)CC(O)C(Cc2ccccc2)NC(=O)OCc2cncs2)C(C)C)cs1 (stereo unspecified),i,0.49
CCOc1ccc(N(C(=O)c2ccncc2)S(=O)(=O)c2ccc3c(c2)oc(=O)n3C)cc1,i,0.39
COc1ccc(S(=O)(=O)c2c(C)cc(C)n(CC(=O)Nc3cc(F)ccc3F)c2=O)cc1,i,-0.48
CCOC(=O)c1c(NC(C)=O)sc2c1CCN(Cc1ccccc1)C2,i,-1.3
CCc1ccc(NC(=O)Cn2nc(C(=O)N3CCCC3)c3ccccc32)cc1,i,-1.3
CC(=O)COc1cc(O)c2c(=O)cc(-c3ccccc3)oc2c1,i,1.1
O=C(Nc1ccc(Br)cc1)c1nc2ccccc2nc1N1CCCC1,i,0.44
CCn1c(=O)c(N2CCN(C(=O)C3CCC3)CC2)nc2ccccc21,i,0.17

# Screens (PubChem)
